RN4220 kill: growth inhibition of S. aureus RN4220, primary screen, OD600 | 16 h | inhibition, % (no concentration beside the values) | 330,000 compounds, 0.33% hits;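 active = z-score of -3 or lower and OD600 up to 0.18 on both plates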;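 note: plate controls were untreated cells for no effect and reference antibiotic for full effect; stock transfer was 100 nL into about 80 µL; one replicate is shown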
Mtb hypoxia rep: PubChem AID 1159583; 300,000 compounds, 0.1% hits; M. tuberculosis hypoxia-regulated fluorescent reporter, fluorescence; fluorescence inhibition, % (no concentration beside the values);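 active = 35 to 45% if threefold the growth effect, above 45% if 1.5-fold the growth effect; inactive = the rest, general growth blockers included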;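 note: wells of about 50 µL received 100 nL stock; 0% = vehicle wells and 100% = reference inhibitor wells; whole bacteria with a GFP reporter of the hypoxia response; strong numbers were not always called active; many hits fall short of the cut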
BJeLR lethal: MLPCN primary cell-based screen for lethality selective to Ras in HRASV12 cells; 300,000 compounds, 0.17% hits; BJeLR (HRASV12) viability, CellTiter-Glo ATP luminescence, 48 h; reference of the scale not given here; AID 1554, 2009; inhibition, % (test concentration not listed);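 active = replicate mean above 50%; inconclusive = above 50% but judged a plate artefact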;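 note: 50 nL library stock added to about 25 µL; numbers are from one replicate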
Autofluor counter: compound fluorescence in toxin protease inhibitor counterscreen; compound autofluorescence counterscreen, microsphere flow cytometry; stronger effect = higher value; fluorescence intensity (test concentration not listed); 360,000 compounds, 3.1% hits;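 active = at least 3 SD above the mean of all compounds, about 16000 in these data; inconclusive = too few beads counted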;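 note: 100 nL of 1 mM stock went into each well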
Sa ugtP lethal: growth inhibition of ugtP-null S. aureus, primary screen, RN4220 ugtP deletion, OD600 | AID 1259309, 2017 | 16 h; some inactives read as strong as hits | growth inhibition, % (test concentration not listed) | 330,000 compounds, 0.54% hits;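 active = z-score under -3 and OD600 up to 0.15 on both plates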;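 note: plate controls were untreated wells for no effect and antibiotic for full effect; wells of about 80 µL received 100 nL stock; the first replicate is given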
PrP UTR inh: inhibition of PrP 5' UTR reporter expression; cell-based PrP 5' UTR mRNA reporter, plate reader; inhibition, % (test concentration not listed); 340,000 compounds, 0.35% hits;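 active = every replicate at 50% or more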;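 note: 0 = median of the neutral control wells; tested in H4 reporter cells; numbers are from one replicate; inactives centre near -14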
Mtb hypoxia rep growth: second read-out of Mtb hypoxia rep, no call of its own (marks repeat the call); growth inhibition, %; measured here: M. tuberculosis growth (absorbance);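 0% = vehicle and 100% = reference antibiotic; read after six days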
* = called active by the depositor; ? = inconclusive; . = not tested or not shown; & = joins results of further samples.

SMILES	RN4220 kill	Mtb hypoxia rep	Mtb hypoxia rep growth	BJeLR lethal	Autofluor counter	Sa ugtP lethal	PrP UTR inh
Cc1ccc(C2=N/C(=C\c3c(C)nn(-c4ccccc4)c3N3CCCC3)C(=O)O2)cc1	3.7	-8	6	0	2710	8	-10
O=C(CCCn1c(=S)[nH]c2cc3c(cc2c1=O)OCO3)NCc1cccc(Cl)c1	8.3	-5	3	10	6254	11	-14
CCOC(=O)NC(=O)COC(=O)c1cccc2ccccc12	3.0	4	-2	-18	4444	4	-10
CCO[C@H]1OC(C(=O)N2CCN(C)CC2)=C[C@@H](C(C)(C)C)[C@@H]1CCCO	.	.	.	-2	3072	.	-10
CCCN(CC(=O)Nc1ccccc1OC)C(=O)c1ccccn1	5.0	10	7	.	3823	4	-22
COc1ccc(N2CCN(C(=O)CCS(=O)(=O)c3cccc4nsnc34)CC2)cc1	-0.4	-7	-6	3	2049	-1	-20
Cc1cccc(OCCCC(=O)Nc2ccc(Br)cc2)c1	2.6	.	.	-9	4710	0	-2
CN(CCCCCCCCC(=O)/C=N/O)Cc1ccccc1	.	.	.	-6	5891	.	-49
Clc1cccc(Cl)c1CON=Cc1c(-c2ccccc2)nc2n1CCS2	-1.6	-3	6	.	.	-13	.
Cc1ccc(OCCNC(=O)c2cc(C(=O)NCCOc3ccc(C)cc3)cc([N+](=O)[O-])c2)cc1	0.4	-2	5	-3	9157	-14	-22
CCOc1ccc(CCNC(=O)COC(=O)COc2ccc(C(C)=O)cc2)cc1OCC	5.3	-1	0	2	4432	10	-15
CCC(C)NC(=O)c1cccc(C)c1 (stereo not given)	6.0	17	9	-9	4926	6	-19
Cn1c(=O)c2c(nc(Cl)n2Cc2ccncc2)n(C)c1=O	4.5	0	-1	1	9897	6	-2
Cc1ccccc1S(=O)(=O)Oc1cccc2c(O)cccc12	10	-2	9	4	3347	0	-11
COc1ccccc1OCc1ccc(C(=O)N2CCN3CCCC3C2)cc1 (stereo not given)	-12	1	5	7	4091	-5	-14
COc1cccc(/C=N\NC(=O)c2ccc(C)nc2)c1	.	.	.	-4	3520	.	-23
CCC1(c2ccc(F)cc2)NC(=O)N(CC(=O)Nc2cccc(S(=O)(=O)N3CCCC3)c2)C1=O (stereo not given)	-5.0	0	13	.	4064	-20	-9
Cc1ccc(S(=O)(=O)CCC(=O)N2CCN(c3ccccc3O)CC2)cc1	3.3	7	-4	.	2871	6	0
c1ccc(CN2CCN(Cc3c[nH]c4ccccc34)CC2)cc1	-0.4	11	14	-3	3861	16	-13
COc1ccc(/C=N/N=C/c2ccc(OC)c(OC)c2)cc1OC	.	.	.	-1	8552	.	-23
O=C(Nc1cccn(Cc2ccccc2Cl)c1=O)NC1CCCCC1	-7.4	5	20	-19	4437	0	-46
CC(=O)Nc1ccc(NC(=O)COC(=O)[C@@H]2CCCN2C(=O)c2cccs2)cc1	0.8	1	10	.	4014	4	-13
CCc1c(C)sc(NC(=O)c2ccoc2C)c1C(N)=O	.	.	.	-3	5701	.	-33
COc1ccc(Cl)cc1S(=O)(=O)NCc1cccnc1	1.6	8	3	0	10522	1	-10

Some entries already given, reduced to Mtb hypoxia rep, Autofluor counter and BJeLR lethal:
molecule | Mtb hypoxia rep | Autofluor counter | BJeLR lethal
COc1ccc(/C=N/N=C/c2ccc(OC)c(OC)c2)cc1OC | . | 8552 | -1
O=C(Nc1cccn(Cc2ccccc2Cl)c1=O)NC1CCCCC1 | 5 | 4437 | -19
CC(=O)Nc1ccc(NC(=O)COC(=O)[C@@H]2CCCN2C(=O)c2cccs2)cc1 | 1 | 4014 | .
CCc1c(C)sc(NC(=O)c2ccoc2C)c1C(N)=O | . | 5701 | -3
COc1ccc(Cl)cc1S(=O)(=O)NCc1cccnc1 | 8 | 10522 | 0

Next structures follow:
SMILES	RN4220 kill	Mtb hypoxia rep	Mtb hypoxia rep growth	BJeLR lethal	Autofluor counter	Sa ugtP lethal	PrP UTR inh
CC(C)Cn1c(SCC(=O)c2c(N)n(C)c(=O)n(C)c2=O)nc2ccccc21	1.2	.	.	-8	5092	-12	-18
O=C(CNC(=O)c1ccccc1)Nc1ccc(Br)cc1C(=O)c1ccccc1	-2.1	.	.	1	9168	4	-9
Cc1cc(C)c(C#N)c(OCC(=O)c2ccccc2)n1	3.4	.	.	4	4806	-2	-11
CC(Oc1ccc(F)cc1)C(=O)Nc1ccccc1N1CCCCC1 (stereo not given)	-9.9	10	1	-4	6190	-11	-11
CCOC(=O)C1CCCN(C(=O)COc2ccc(C(=O)c3ccccc3)cc2)C1 (stereo not given)	4.8	5	0	.	5450	4	-3
Cc1cc(C)c(S(=O)(=O)/N=C2\C=C(NS(=O)(=O)c3ccccc3)C(=O)c3ccccc32)c(C)c1	.	.	.	3	5929	.	-50
COCCNC(=S)N(CCc1c(C)[nH]c2ccc(F)cc12)Cc1ccc(C)cc1	56	4	4	2	3969	39	-19
CCOC(=O)c1[nH]c(C)c(C(O)=C2C(=O)C(=O)N(CCN(C)C)C2c2ccco2)c1C (stereo not given)	3.1	9	4	.	.	2	.
CCCC(C(=O)NC1CCCCC1)N(CC1CCCO1)C(=O)CNS(=O)(=O)c1ccc(F)cc1 (stereo not given)	4.1	.	.	-1	5671	7	-1
CC(C)CCn1c(NCCc2ccccc2)nc2c1c(=O)n(C)c(=O)n2C	0.1	-5	5	15	5985	13	0
Cc1cccc(C)c1NC(=O)COC(=O)Cc1ccsc1	-2.5	1	-2	-2	2059	-6	-4
Cc1cccc2cc(CN(Cc3nnnn3Cc3ccco3)C3CCCC3)c3nnnn3c12	6.4	24	14	-4	9849	-7	-14
Cc1c(C(=O)Nc2nnc(C3CC3)s2)oc2ccccc12	7.6	5	1	.	.	-3	-54
CN(Cc1ccccc1)S(=O)(=O)c1ccc2c(c1)n(C)c(=O)n2C	0.5	.	.	-3	2836	14	-12
Brc1ccc(-c2csc(Nc3nc(-c4ccc(Br)cc4)cs3)n2)cc1	-5.3	0	7	4	3279	21	-1
COc1ccc(C2CC(c3ccccc3)Oc3cc(C)cc(C)c32)cc1 (stereo not given)	-10&-11	3&-1	4&0	.	.	61&62	.
COc1ccc(NC(=O)c2ccc(-n3nc(C)cc3C)cc2)cc1OC	-3.7	5	15	-2	3330	7	-26
Cc1ccccc1Cn1c(-c2ccc(=O)[nH]c2)nc2ccccc21	4.4	9	-3	1	3924	13	.
CC(NS(=O)(=O)c1ccc(N)cc1)C1CC2CCC1C2 (stereo not given)	-2.5	-4	-6	-7	3576	-9	-21
CCN(c1ccccc1)S(=O)(=O)c1ccc(N)cc1	6.5	.	.	0	5246	0	-4
O=C(Nc1ccnc(-c2ccncc2)n1)c1ccc(Cl)cc1	1.0	13	5	2	2429	-1	-5
Cc1cnc(C(=O)OCC(=O)NCc2ccccc2)cn1	6.2	11	6	-3	9689	-1	-22
CC(C)CNC(=O)CN1c2cccc3cccc(c23)S1(=O)=O	4.9	0	5	1	3878	4	1
Cc1ccc(C(=O)N[C@H](C(=O)Nc2sccc2C(N)=O)C(C)C)cc1	4.6	10	6	6	4035	15	-31
CC1OC(C)(C)OC1C1CNc2nc(NC(=O)C(C)(C)C)[nH]c(=O)c2N1C(=O)c1cccnc1 (stereo not given)	-1.9	4	4	-5	9052	12	-17
O=c1[nH]c(CSc2cccc[n+]2[O-])nc2ccccc12	.	.	.	-9	?	.	-9
Cc1onc(-c2ccccc2)c1C(=O)N/N=C/c1cc2c(cc1Cl)OCO2	.	.	.	-13	2166	.	-15
CC(=O)OC1N=C(c2ccccc2)c2cc(Br)ccc2N(C)C1=O (stereo not given)	.	.	.	-6	3864	.	-11
O=c1c(-c2ccc3c(c2)OCCO3)coc2cc(OC3OC(CO)C(O)C(O)C3O)ccc12 (stereo not given)	1.6	10	8	25	4245	3	-42
O=c1cc(Cl)[nH]n(-c2ccccc2)c1=O	8.1	2	10	-2	3675	3	-24
O=C(COC(=O)c1cncc(Br)c1)NCc1ccc(F)cc1	3.6	-3	-1	-16	3817	7	-5
CCN(CC)C(=O)C(Oc1ccc(C)nc1[N+](=O)[O-])c1ccccc1 (stereo not given)	-2.0	-1	8	-5	5936	15	-10
CCOc1ccc2sc(NS(=O)(=O)c3ccc(OC)c(OC)c3)nc2c1	2.5	3	2	14	7974	26	-25
O=C(Cn1cncn1)NN=Cc1cccnc1	2.2	-13	-9	.	.	3	.
COc1ccc(-c2cc(C(F)F)n3ncc(C(=O)NCCCN4CCCC4=O)c3n2)cc1	3.1	5	3	1	4335	8	-34
CN/N=C/c1ccc(C#N)cc1	.	.	.	-1	5134	.	1
O=C(Oc1ccccc1Cl)c1ccccc1	3.1	-8	5	.	3342	0	1
COC(=O)[C@@]12CCCN1C(c1ccc(-c3ccccc3)cc1)C1C(=O)N(C)C(=O)C12 (stereo not given in full)	3.6	0	6	.	.	3	.
O=C(NNC(=O)C1CC1)c1cc(Cl)nc2ccccc12	0.0	-1	-3	2	6496	6	-13
Cc1nn(CC(=O)NC2CCCCC2)c(=O)c2cccn12	2.9	7	1	-8	5778	5	-7
Cc1ccc(-c2csc(N3CCN(c4cc5c(cc4Cl)nc(-c4ccncc4)n5CCOCCO)CC3)n2)cc1	.	.	.	3	2969	.	-16
CCOC(=O)Cc1csc(NC(=O)Nc2ccccc2)n1	3.3	9	12	1	3788	-2	-34
COc1ccc(S(=O)(=O)N(CCCN2CCCC2=O)Cc2cc3c(C)ccc(C)c3[nH]c2=O)cc1	0.0	.	.	4	2628	-5	-28
Cc1nn(CC(=O)N2CCN(C34CC5CC(CC(C5)C3)C4)CC2)c(C)c1[N+](=O)[O-]	-0.3	8	10	2	5217	2	-7
Cc1nnc(NC(=O)C2CCCC2)s1	1.4	-9	-6	-11	5972	2	-18
CCOC(=O)Cc1csc(N/C(=N/S(=O)(=O)c2ccc(F)cc2F)c2ccccc2)n1	4.1	4	3	7	2026	4	-5
CCN(CC(=O)NC(C)C)C(=O)CCNC(=O)c1ccc(Cl)cc1	4.1	10	13	12	23870*	-4	-26
CC1CCN(C(=O)CSc2nnc3ccc(-c4cccnc4)nn23)CC1	3.7	-5	-7	8	4427	5	-21

One compound at a time (already shown). Screens in order: RN4220 kill | Mtb hypoxia rep | Mtb hypoxia rep growth | BJeLR lethal | Autofluor counter | Sa ugtP lethal | PrP UTR inh
`Cc1nnc(NC(=O)C2CCCC2)s1` across the screens: 1.4 | -9 | -6 | -11 | 5972 | 2 | -18
`Cc1nn(CC(=O)N2CCN(C34CC5CC(CC(C5)C3)C4)CC2)c(C)c1[N+](=O)[O-]` across the screens: -0.3 | 8 | 10 | 2 | 5217 | 2 | -7
`O=C(Oc1ccccc1Cl)c1ccccc1` across the screens: 3.1 | -8 | 5 | . | 3342 | 0 | 1

Gathered by group, the entries above with a furan ring, fused or not
SMILES	RN4220 kill	Mtb hypoxia rep	Mtb hypoxia rep growth	BJeLR lethal	Autofluor counter	Sa ugtP lethal	PrP UTR inh
CCc1c(C)sc(NC(=O)c2ccoc2C)c1C(N)=O	.	.	.	-3	5701	.	-33
CCOC(=O)c1[nH]c(C)c(C(O)=C2C(=O)C(=O)N(CCN(C)C)C2c2ccco2)c1C (stereo not given)	3.1	9	4	.	.	2	.
Cc1cccc2cc(CN(Cc3nnnn3Cc3ccco3)C3CCCC3)c3nnnn3c12	6.4	24	14	-4	9849	-7	-14
Cc1c(C(=O)Nc2nnc(C3CC3)s2)oc2ccccc12	7.6	5	1	.	.	-3	-54

Next part.
SMILES	RN4220 kill	Mtb hypoxia rep	Mtb hypoxia rep growth	BJeLR lethal	Autofluor counter	Sa ugtP lethal	PrP UTR inh
FCCCOc1ccc(-c2nccc(-c3ccc(Cl)cc3)n2)cc1	0.2	.	.	1	2068	1	-36
O=C(Nc1ccccc1O)c1ccc(Cl)cc1	4.3	15	13	2	4166	-4	-91
Cc1nc2sc(C(c3cccs3)N3CCN(c4cccc(Cl)c4)CC3)c(O)n2n1 (stereo not given)	-12	6	9	7	5817	-5	-3
CCOC(=O)CSc1nc(C)cc(C)c1C#N	5.9	8	8	-2	2386	-1	-21
Cc1ccc(C(=O)OCC(=O)NCc2ccco2)cc1S(=O)(=O)N1CCOCC1	5.0	16	10	-4	6164	7	-4
